RanGTP-Impb inh: inhibitors of RanGTP-importin-beta interaction, primary screen, biochemical, FRET, CFP-Ran, YFP-importin-beta, homogeneous. inhibition, % (test concentration not listed). 300,000 tested, 1.1% active. Ran GTPase (GTP-bound) - importin-beta complex. cell-free CFP-Ran/YFP-importin-beta FRET ratio;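 active = most replicates above 15%; inconclusive = exactly half above 15%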;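 note: 0% = DMSO wells and 100% = Ran loaded with GDP instead of GTP; wells of about 40 µL received 100 nL stock; the first replicate is given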
Beta2AR agonist: beta2AR agonists driving receptor internalization, primary screen, cell-based, FAP fluorogen, flow cytometry; Am2.2-beta2AR cells; reference of the scale not given here; response, % (test concentration not listed); 340,000 tested, 0.43% active; Beta-2 adrenergic receptor (Homo sapiens), P07550;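 active = response above a set limit, near 3 SD of response in nonfluorescent compounds, cut at about 42% in these data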;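 note: stock transfer was 100 nL into about 11 µL; a reference agonist was the positive control; negative values mostly stem from fluorescent compounds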
Target sequence (P07550 whole entry, looked up): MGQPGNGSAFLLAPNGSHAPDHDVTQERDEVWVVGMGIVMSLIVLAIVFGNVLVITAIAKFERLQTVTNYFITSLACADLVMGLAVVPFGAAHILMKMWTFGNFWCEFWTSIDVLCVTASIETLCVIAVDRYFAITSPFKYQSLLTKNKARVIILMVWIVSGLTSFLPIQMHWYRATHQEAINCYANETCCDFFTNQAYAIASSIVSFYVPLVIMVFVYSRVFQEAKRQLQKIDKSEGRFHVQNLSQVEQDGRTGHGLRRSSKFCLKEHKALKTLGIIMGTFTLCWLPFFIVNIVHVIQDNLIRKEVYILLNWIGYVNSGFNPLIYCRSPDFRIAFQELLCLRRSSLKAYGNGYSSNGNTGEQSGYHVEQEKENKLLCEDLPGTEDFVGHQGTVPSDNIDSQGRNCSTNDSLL
Beta apoptosis: inhibitors of cytokine-induced beta cell apoptosis, primary screen, luminescence. INS-1E cytokine-induced death, ATP luminescence, 48 h; percent of positive-control rescue, neutral wells zero. protection from apoptosis, % (test concentration not listed). 300,000 tested, 0.8% active. AID 435005, 2010;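 active = all replicates at 75% or more, or half of them and the mean; inconclusive = half reach 75% but not the mean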;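 note: 0% = cytokine-treated negative control wells and 100% = positive control rescue; higher means more ATP so stronger rescue from cytokine killing; wells of about 40 µL received 100 nL stock; the first replicate is given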
UCH37 DUB inh: inhibitors of human UCH37 deubiquitinase, primary screen, biochemical, Ub-AMC cleavage, fluorescence; Ubiquitin carboxyl-terminal hydrolase isozyme L5 (Homo sapiens), Q9Y5K5; purified proteasome/UCH37; inhibition, % (concentration not given with the values); 330,000 tested, 0.33% active;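 active = mean of two replicates above 20%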;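 note: 0% = compound-free wells with enzyme and 100% = wells lacking proteasome; stock transfer was 100 nL into about 20 µL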
Target sequence (Q9Y5K5 whole entry, looked up): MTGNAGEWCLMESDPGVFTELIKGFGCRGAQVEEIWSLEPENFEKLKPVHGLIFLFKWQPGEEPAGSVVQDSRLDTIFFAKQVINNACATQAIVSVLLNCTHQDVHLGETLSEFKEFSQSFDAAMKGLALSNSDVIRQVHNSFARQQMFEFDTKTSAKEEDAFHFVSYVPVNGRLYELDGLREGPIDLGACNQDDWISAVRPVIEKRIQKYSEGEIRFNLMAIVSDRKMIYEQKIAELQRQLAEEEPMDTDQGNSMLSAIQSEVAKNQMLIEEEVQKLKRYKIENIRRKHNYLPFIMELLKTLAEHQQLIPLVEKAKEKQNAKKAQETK
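Schedule: 30 min plus 25 min, room temperature / Material: human UCH37 within purified proteasomes / Technique: AMC fluorescence intensity at 355/460 nm / Buffer or medium: pH 7.4 Tris-HCl (50 mM) with ovalbumin, ATP-MgCl2, DTT / Controls: wells without proteasome as full block, compound-free enzyme plus substrate as uninhibited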
Calb FLC: C. albicans growth inhibition with fluconazole, primary screen, CaCi-2 strain, Alamar Blue fluorescence; growth inhibition, % (test concentration not listed); C. albicans CaCi-2 (fluconazole-resistant clinical isolate) + fluconazole, 48 h; 300,000 tested, 0.57% active;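 active = most replicates above 75%; inconclusive = exactly half above 75%; inactive = most below 75%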;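 note: all wells also contain fluconazole at 8 µg/ml as a sub-toxic cotreatment; 0% = median of DMSO wells and 100% = median of geldanamycin control wells; wells of about 8 µL received 7.5 nL stock; the first replicate is given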
LANA-H2B inh: blockers of LANA interaction with H2A/H2B – biochemical, FP readout, HTS, primary screen; Protein LANA1 (Human herpesvirus 8 type P (isolate GK18)), Q9QR71; cell-free LANA-H2A/H2B peptide, fluorescence polarization; inhibition, % (concentration not given with the values); 320,000 tested, 0.6% active; in the data active = inhibition mostly above about 10%, no sharp cut-off; inactive = mostly below about 6.7%;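 note: stock transfer was 7.5 nL into about 10 µL; 0% = median of vehicle wells and 100% = median of positive control wells; one replicate is shown; the record names a cut of 25% in any replicate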
T cruzi repl: inhibitors of intracellular T. cruzi growth, primary screen, luminescence, NIH3T3 host cells; inhibition, % (concentration not given with the values); AID 1885, 2009; T. cruzi beta-gal in NIH3T3, 90 h; 300,000 tested, 1.4% active;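 active = mean inhibition across valid replicates above about 55%, limit read from the data; inconclusive = mean below that limit but half or more replicates reach it; inactive = mean below it, under half of replicates reach it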;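 note: signal also drops with host cell toxicity which is not excluded here; 0% = plate median of DMSO wells and 100% = zero luminescence signal; higher percent means less beta-gal luminescence so fewer parasites; stock transfer was 50 nL into about 50 µL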
Bfl-1 A1 inh: caspase 3/7 activation in MEF A1-2A-BIM cells, primary screen, A1 inhibitor project, cell-based, luminescence, HTS; Caspase-Glo 3/7 luminescence, 3 h; percent of clofoctol response, vehicle zero; caspase activation, % (test concentration not listed); 330,000 tested, 0.066% active; AID 2462, 2010;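 active = over half of replicate activation scores above 10%, or exactly half above 10 with the replicate mean above 10; inconclusive = replicate mean below 10 yet half the replicates above 10; inactive = over half of replicates below 10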;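 note: wells of about 30 µL received 50 nL stock; many hits fall short of the cut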
An asterisk follows results filed as active; ? = inconclusive; · = no result given. This is a random part of the collection; any-hit rate near 4.3%.

SMILES | RanGTP-Impb inh | Beta2AR agonist | Beta apoptosis | UCH37 DUB inh | Calb FLC | LANA-H2B inh | T cruzi repl | Bfl-1 A1 inh
CC(C)=CCN1CCN(Cc2ccc(Sc3nncn3C)o2)CC1CCO (configuration not stated) | 3.0 | 5.7 | -3.9 | 3.6 | 6.9 | -0.1 | 1.7 | -0.2
CCc1ccc(CN2C(=O)CCC2(C)C(=O)NC2CCCC2)cc1 (configuration not stated) | 4.3 | 4.9 | -7.2 | · | 9.1 | -3.9 | -5.9 | 0.6
Cc1cc(NC(=O)CC2(CC(=O)O)CCCC2)n(C)n1 | -1.5 | -1.1 | -4.9 | 3.2 | -3.4 | 0.7 | -9.0 | 0.0
Cn1c2c(c(=O)n(C)c1=O)C(NS(=O)(=O)c1ccc(Cl)cc1)(C(F)(F)F)C(=O)N2 (configuration not stated) | -0.9 | 14.9 | -1.8 | 0.4 | -11.9 | -4.0 | -4.7 | 0.2
Cc1nc(C)n(CC(=O)N2CCCC(C(=O)c3ccc(Cl)cc3C)C2)n1 (configuration not stated) | ? | 8.0 | -0.1 | 2.6 | -20.9 | -0.7 | 9.9 | 0.5
Cc1cc2c3c([nH]c2cc1S(=O)(=O)N1CCC2(CC1)OCCO2)CCCC3=O | 0.9 | -4.7 | 27.2 | 1.8 | 17.4 | -2.4 | -15.8 | -0.8
CCOC(=O)c1c(NC(=O)CSc2nnc(CNc3ccc(F)cc3)o2)sc(C(C)=O)c1C | 2.6 | -7.2 | · | 4.2 | 7.8 | 1.5 | 12.5 | -0.1
COc1ccc(S(=O)(=O)CCC(=O)NCc2ccc(C)o2)cc1 | 1.1 | -4.7 | -0.5 | 4.3 | 0.9 | 0.0 | 2.8 | -0.5
Cc1ccc(S(=O)(=O)Nc2ccc3cn[nH]c3c2)c(C)c1 | · | 11.2 | 1.0 | 0.9 | · | -2.7 | · | 0.1
CCc1nc2ccc(C(=O)NCCCN3CCN(c4ccc(F)cc4)CC3)cc2nc1CC | 3.4 | 6.0 | 5.4 | 3.4 | -16.7 | 1.0 | -17.4 | -0.2
CCOC(=O)N1CCc2c(sc3ncn(Cc4ccc(F)cc4)c(=O)c23)C1 | 4.1 | -8.0 | · | 1.8 | 1.9 | 7.0 | 15.9 | -0.3
O=C(NCc1ccc(Cl)cc1)c1ccc2c(=O)n(CC3CCCO3)c(=S)[nH]c2c1 (configuration not stated) | -1.1 | -0.5 | 1.5 | 3.7 | 3.0 | 1.4 | 1.4 | -0.5
CCOc1ccc(CCNC(=O)c2ccc(S(=O)(=O)N3CCCC3)cc2)cc1OCC | 0.0 | -5.0 | 1.5 | 1.6 | -7.8 | -15.5 | 16.0 | -1.2
Cc1ccc(C(C(=O)NC2CCCC2)N(Cc2ccc(F)cc2)C(=O)c2snc(C(N)=O)c2N)o1 (configuration not stated) | -0.6 | 9.3 | -1.1 | -24.3 | 2.8 | -3.7 | 3.4 | 0.1
CC(=O)N1CCN(S(=O)(=O)c2cccc(C(=O)Nc3nc4ccccc4[nH]3)c2)CC1 | 1.5 | -11.2 | 0.9 | 2.7 | -5.3 | -4.2 | -2.7 | -1.8
CCCCNC(=O)CCCCn1c(=S)[nH]c2c([nH]c3ccc(OC)cc32)c1=O | -2.6 | -1.2 | -4.9 | -3.5 | -5.1 | -2.4 | 3.5 | -0.5
CCOC(=O)CC(C#N)c1cn(C)c2ccccc12 (configuration not stated) | -1.2 | -1.3 | 0.3 | -1.9 | 11.2 | -1.2 | 8.1 | -0.1
O=c1oc(-c2ccccc2Cl)nc2ccsc12 | 2.6 | 10.9 | 0.5 | 2.6 | 2.2 | -2.2 | -6.9 | 1.3
CCCNC(=O)N1c2ccccc2Sc2ccccc21 | 2.3 | -11.6 | -3.6 | 5.7 | -1.5 | -7.5 | 1.5 | 0.1
CCOC(=O)CN1C(=O)C2Cc3ccccc3CN2C1=S (configuration not stated) | 6.0 | -7.3 | -1.7 | -0.4 | -10.8 | 0.4 | -6.0 | 0.6

The final 5 compounds of the section above are carried over, then new ones follow.
SMILES | RanGTP-Impb inh | Beta2AR agonist | Beta apoptosis | UCH37 DUB inh | Calb FLC | LANA-H2B inh | T cruzi repl | Bfl-1 A1 inh
CCCCNC(=O)CCCCn1c(=S)[nH]c2c([nH]c3ccc(OC)cc32)c1=O | -2.6 | -1.2 | -4.9 | -3.5 | -5.1 | -2.4 | 3.5 | -0.5
CCOC(=O)CC(C#N)c1cn(C)c2ccccc12 (configuration not stated) | -1.2 | -1.3 | 0.3 | -1.9 | 11.2 | -1.2 | 8.1 | -0.1
O=c1oc(-c2ccccc2Cl)nc2ccsc12 | 2.6 | 10.9 | 0.5 | 2.6 | 2.2 | -2.2 | -6.9 | 1.3
CCCNC(=O)N1c2ccccc2Sc2ccccc21 | 2.3 | -11.6 | -3.6 | 5.7 | -1.5 | -7.5 | 1.5 | 0.1
CCOC(=O)CN1C(=O)C2Cc3ccccc3CN2C1=S (configuration not stated) | 6.0 | -7.3 | -1.7 | -0.4 | -10.8 | 0.4 | -6.0 | 0.6
Clc1ccc(-c2nnc3sc(-c4ccc(Br)o4)nn23)c(Cl)c1 | 7.0 | -0.2 | -9.1 | 3.8 | -0.4 | -6.1 | -22.2 | 0.7
C=CCNC(=O)c1ccc(OC)cc1 | 1.7 | 5.3 | -4.4 | · | -4.9 | -2.4 | -7.3 | 1.0
CC(C)Oc1ccc(N2CC(C(=O)Nc3ccccn3)CC2=O)cc1 (configuration not stated) | 2.8 | -1.9 | -2.0 | 0.4 | -5.2 | -11.2 | -18.0 | 0.1
Clc1ccc(C2[C@H]3CN(Cc4cccnc4)[C@H](c4ccccc4)C34CC2(c2cccnc2)C4)cn1 (some centres not stated) | 0.3 | 6.2 | 1.9 | 4.8 | -7.0 | -3.5 | 22.4 | 0.0
Cn1ncc2cc(NC(=S)NC(=O)c3ccccc3)ccc21 | 1.0 | -9.9 | -6.8 | 3.5 | -3.7 | -2.9 | 0.2 | 0.5
CCOC(=O)N1CCN(c2c(NCCN3CCN(Cc4ccccc4)CC3)c(=O)c2=O)CC1 | ? | -3.6 | 0.6 | 2.3 | 2.5 | 4.0 | 3.9 | 0.8
CCOC(=O)c1c(C)[nH]c(C)c1C(=O)COC(=O)c1ccc([N+](=O)[O-])s1 | · | 10.8 | 3.6 | 8.8 | · | 0.7 | · | -0.4
COc1ccc(OCC(=O)N/N=C(\CCC(=O)O)c2cccs2)cc1 | -1.1 | -3.4 | -9.3 | · | -10.8 | 1.5 | -13.6 | 0.4
Cc1ccc(N2C3=C(C(=O)CC(C)(C)C3)C(c3cn(C)nc3C)C3=C2CC(C)(C)CC3=O)cc1 | 25.6* | -18.0 | 1.0 | -51.4 | -10.8 | 1.3 | 45.4 | 0.5

Part of the list above with just RanGTP-Impb inh, T cruzi repl and UCH37 DUB inh.
SMILES,RanGTP-Impb inh,T cruzi repl,UCH37 DUB inh
Clc1ccc(-c2nnc3sc(-c4ccc(Br)o4)nn23)c(Cl)c1,7.0,-22.2,3.8
Cc1ccc(N2C3=C(C(=O)CC(C)(C)C3)C(c3cn(C)nc3C)C3=C2CC(C)(C)CC3=O)cc1,25.6*,45.4,-51.4

Screens as filed in PubChem.
